# HCMV NEC inh: inhibitors of HCMV UL50-UL53 interaction, biochemical, HTRF | normalized percent inhibition | inhibition, % (no concentration beside the values) | 190,000 compounds, 0.15% hits;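 active = both replicates at 50% or more, plus weaker picks with an unusually low signal ratio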;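 also: stock transfer was 100 nL into about 20 µL; 0% = negative control wells and 100% = wells with untagged competitor protein; inactives centre near -12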
# GIV-Gai inh: inhibitors of GIV peptide binding to Galpha-i3, primary screen, biochemical, fluorescence polarization, FITC-GIV GBA peptide, rat Galphai3; Guanine nucleotide-binding protein G(i) subunit alpha-3 (Rattus norvegicus), P08753; 90 min; hits give low values; scaled: aluminum fluoride 0%, vehicle 100%; percent of control (FP), % (no concentration beside the values); 210,000 compounds, 0.42% hits; AID 1224905, 2016;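 active = replicate mean at 85% of control or lower, very high polarization wells dropped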;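 also: wells of about 15 µL received 100 nL stock; the first replicate is given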
# Target sequence (P08753 whole entry, looked up): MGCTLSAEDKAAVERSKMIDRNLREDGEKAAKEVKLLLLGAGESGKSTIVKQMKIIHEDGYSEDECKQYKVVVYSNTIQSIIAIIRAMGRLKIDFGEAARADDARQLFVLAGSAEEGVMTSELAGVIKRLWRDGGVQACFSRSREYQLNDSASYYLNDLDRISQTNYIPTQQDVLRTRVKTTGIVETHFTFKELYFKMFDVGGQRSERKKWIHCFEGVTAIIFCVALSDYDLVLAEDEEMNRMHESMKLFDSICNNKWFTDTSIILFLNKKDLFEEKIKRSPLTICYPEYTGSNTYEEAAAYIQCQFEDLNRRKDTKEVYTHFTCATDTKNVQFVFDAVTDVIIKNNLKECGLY
# Sa growth inh: S. aureus growth inhibition at 42 and 30 °C, primary screen, LtaS inhibitor project, RN4220, two temperatures; OD600, 20 h, 42 °C; hits give low values; relative growth, % (no concentration beside the values); 170,000 compounds, 0.53% hits;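 active = growth at 42 °C up to 50% and 20 or more points under that at 30 °C, or under 10% at both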;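 also: 300 nL library stock went into each well; scaled to the means of positive and negative controls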
# Sa growth inh second temp: second read-out of Sa growth inh, no call of its own (marks repeat the call); relative growth, %; measured here: growth at 30 °C;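 optical density after 20 h as mean of two plates; 100% = untreated growth and lower means inhibition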
# * = called active by the depositor; nt = no result given; & = joins results of further samples.
compound	HCMV NEC inh	GIV-Gai inh	Sa growth inh	Sa growth inh second temp
Cc1ccnc2nc(C(=O)N3C(=NCc4ccccc4)SCC3(C)C)nn12	-14	nt	86	97
O=C(NC1CCCCNC1=O)c1ccco1 (stereo not given)	-4	98	96	92
CCN1C(=O)/C(=C\c2cccc3c2-c2ccccc2C3=O)OC1=S	nt	95	98	85
Cc1noc(C)c1S(=O)(=O)N(C(C)C)C(C)C	0	102	99	80
Cc1ccc(Nc2cc(C(=O)NCCc3ccccc3)c3ccccc3n2)c(C)c1	17	99	106	92
Cc1nc(-n2nc(C)c(Cc3ccccc3)c2C)sc1C(=O)N1CCCC1	25	108	nt	nt
O=C(Nc1ccccc1-c1nc2ccccc2[nH]1)c1cc([N+](=O)[O-])c(N2CCOCC2)c([N+](=O)[O-])c1	-19	102	nt	nt
O=C(NC1CCCC1)c1ccc2c(=O)n(Cc3ccccc3)c(SCc3ccc([N+](=O)[O-])cc3)nc2c1	nt	101	99	84
COC(=O)c1c(NC(=O)CCCOc2cccc(C)c2)sc2c1CCC2	0	104	90	93
CCN(CC)c1ccc(/C=C2\C(=O)N(c3nc(-c4ccccc4O)cs3)N=C2C)cc1	-20	104	nt	nt
O=C(c1ccc(Cn2c(=O)[nH]c3ccsc3c2=O)cc1)N1CCCCC1	nt	99	85	74
O=c1[nH]c2ccc(NCc3ccc(-c4ccccc4)o3)cc2[nH]1	-15	102	112	101
NS(=O)(=O)c1ccc(Nc2cc(-c3ccccc3)ncn2)cc1	-8	103	nt	nt
O=C(O)c1ccccc1S(=O)(=O)Nc1cccnc1	11	107	119	97
COc1ccc(N2CCN(c3ccc(-c4nc(-c5ccccc5)no4)cc3[N+](=O)[O-])CC2)cc1	-25	104	100	84
O=C(Oc1ccc(-c2nnco2)cc1)c1cc2c(s1)CCCC2	-4	nt	108	104
CCC(=O)Nc1nc2ccc(NS(=O)(=O)c3cc(Cl)ccc3OC)cc2s1	-8	93	nt	nt
Cc1cccc(-n2c(C)cc(C(=S)N3CCOCC3)c2C)c1C	nt	97	88	72
CSC(=NCc1ccco1)Nc1cc(-c2ccccc2)[nH]n1	-13	106	73	75
O=C(COc1ncnc2cc(Cl)ccc12)c1ccc2c(c1)OCCCO2	-14	100	101	95
Cc1cc(C)cc(OCC(=O)N(Cc2ccc(C)o2)C2CCS(=O)(=O)C2)c1 (stereo not given)	2	101	112	91
Cc1cc(S(=O)(=O)N2CCC(N3CCOCC3)CC2)ccc1-n1cnnn1	-17	102	nt	nt
O=C(OC1CCOC1=O)c1ccc2c(c1)C(=O)N(Cc1ccccc1)C2=O (stereo not given)	-40	nt	93	95
Cc1cccc(N2CCN(C(=O)c3ccc(NC(=O)c4nsc5ccccc45)cc3)CC2C)c1 (stereo not given)	nt	105	111	97
Cc1ccc2nc(N(Cc3cccnc3)C(=O)c3cccs3)sc2c1	nt	102	113	92
O=C(Nc1cccc2ccccc12)NC1CC1	-36	112	115	98
CCC(=O)N1CCc2cc(S(=O)(=O)CCC(=O)Nc3cccc(C)c3)ccc21	-2	97	111	88
O=C(Nc1ccccc1)Sc1ccccc1Cl	-21	103	81	47
O=C(Cn1c(SCc2cccc(F)c2)nc2ccncc21)Nc1ccc(Cl)cc1F	-18	103	114	80
CCCCN(C)C(=O)CSc1nc2ccccc2nc1Cc1ccc(C)cc1	nt	102	95	96
Cc1nnc(NC(=O)c2cc(=O)c3cccc(C)c3o2)s1	-11	94	nt	nt
COc1ccc(CN(C)C(=O)COc2ccccc2)cc1	26	99	97	101
COCCn1c(C23CC4CC(CC(C4)C2)C3)n[nH]c1=S	4	102	100	96
COc1ccc(C)cc1NC(=O)C(NS(=O)(=O)c1cccc2nsnc12)c1ccccc1 (stereo not given)	-51	103	113	95
CC(C)NC(=O)CC1Oc2ccc(Cl)cc2NC1=O (stereo not given)	nt	103	111	85
O=C1NCCCCC1NS(=O)(=O)c1ccc(Cl)cc1 (stereo not given)	-14	102	101	101
CC1CCN(S(=O)(=O)c2ccc3c(c2)N(CC(=O)NC(C)(C)C)C(=O)CC(C)S3)CC1 (stereo not given)	-6	107	nt	nt
Cc1oc(/N=C/c2ccccc2)c(C#N)c1C	-26	113	97	104
O=C1CSCC(=O)N1c1cc(C(F)(F)F)cc(C(F)(F)F)c1	-27	104	95	91
Clc1ccc2nnc(CCc3nc(-c4ccncc4)no3)n2n1	-69	105	nt	nt
Cc1cc(Oc2ccccc2)nc(OCC#N)n1	-13	100	111	99
Cn1c(=O)n(C)c2cc(S(=O)(=O)Nc3cc4c(cc3SC3CCCCC3)n(C)c(=O)n4C)ccc21	-30	107	nt	nt
O=C(Cn1cncn1)Nc1c(Cl)cc(Cl)cc1Cl	-6	nt	107	95
OC(CNCc1ccco1)COc1ccc(OCC(O)CNCc2ccco2)cc1 (stereo not given)	-32	107	101	89
Cc1oc(-c2cccc(Cl)c2)nc1CN1CCN(S(=O)(=O)c2cccc3nsnc23)CC1	-26	110	nt	nt
O=C1c2ccccc2NC(c2ccccn2)N1c1ccc(Cl)cc1 (stereo not given)	-5	nt	91	88
COc1ccccc1NC(=O)CCC1COc2ccccc2O1 (stereo not given)	-11	101	110	75
Cc1ccc(C(=O)COC(=O)c2ccc(-n3cnnn3)cc2)c(C)c1 (tested in a mixture with another compound)	-2	nt	96	75
O=C(OCCN1CCCCC1)c1cccc(COc2ccc3ccccc3c2)c1	nt	102	102	83
CC(O)(CS(=O)(=O)Cc1ccc(Cl)cc1)C(=O)Nc1ccc(Cl)cc1 (stereo not given)	-8	105	nt	nt

# Later entries.
compound	HCMV NEC inh	GIV-Gai inh	Sa growth inh	Sa growth inh second temp
O=C(O)CC(C(=O)O)C(O)c1ccccc1 (stereo not given)	-13	102	100	90
COc1cc(OC)cc(C(=O)Nc2ccc(OCC(=O)O)cc2)c1	-9	107	91	93
CC(C)Oc1ccccc1-c1nc(SCC(=O)c2ccc(F)cc2)n[nH]1	15	101	102	77
CC(C)NC(=O)c1ccc(CS(=O)Cc2ccc(Cl)cc2)o1 (stereo not given)	-29	101	98	85
COC(=O)C1=C(C)N(CC2CCCO2)C(=O)/C1=C/c1ccc(CNS(=O)(=O)c2ccc(Cl)cc2)o1 (stereo not given)	-29	103	96	91
COc1ccccc1NC(=O)CSc1nc2c(cc1C#N)CCCCC2	20	112	nt	nt
CCOC(=O)/C=C1\CSCC(C(=O)OCC)N1 (stereo not given)	-2	100	57	45
NC(=O)C1CCN(C(=O)c2n[nH]c(=O)c3ccccc23)CC1	nt	101	89	83
Cc1ccc2c(c1)N(C(=O)N1CCC(C(=O)NCCc3ccccc3)CC1)CC(C)O2 (stereo not given)	-10	103	95	90
CC(=O)N1c2ccc(S(=O)(=O)N3CCC(C(=O)N4CCn5c4nc4ccccc45)CC3)cc2CC1C (stereo not given)	-33	103	89	70
CC(C)CNC(=O)c1cc(CC(C)C)on1	-11	105	94	88
COc1cccc(C2C(C#N)=C(N)Oc3n[nH]c(-c4ccc5c(c4)OCO5)c32)c1OC (stereo not given)	-14	101	nt	nt
COc1ccc(NS(=O)(=O)c2ccc3[nH]c4c(c3c2)CCCC4)cc1Cl	nt	103	88	69
COC(=O)c1sccc1NC(=O)Nc1cc(NC(=O)c2ccccc2)ccc1N1CCCC1	-33	106	nt	nt
COc1ccc(NC(=O)C(Cc2c[nH]c3ccccc23)NC(C)=O)cc1OC (stereo not given)	21	106	103	103
Cc1cccc(C)c1NCc1nnc(SCC#N)n1-c1ccccc1	-18	98	95	80
O=C(Nc1cccc(-c2nc3cccnc3s2)c1)c1ccc2ccccc2n1	-12	106	nt	nt
Cc1cc(NC(=O)c2ccc3c(c2)S(=O)(=O)c2ccccc2C3=O)n(-c2ccccn2)n1	-24	nt	91	79
Cc1noc(N)c1C(=O)OCc1c(F)cccc1Cl	-34	nt	86	96
Cc1cc(OCC(=O)N(C)c2ccccc2)cc(C)c1Cl	-14	98	142	109
CCn1c(=O)c(-c2noc(C(=O)NCCC3=CCCCC3)n2)nn(-c2ccccc2)c1=O	-65	101	nt	nt
Cc1ccc(C(=O)Nc2ccc3nc(N4CCCCC4)cc(C)c3c2)cc1F	nt	95	92	93
COc1ccc(-c2nn3c(=O)cc(CSc4ccc(C)cc4)nc3s2)cc1	8	100	nt	nt
CCCn1ncc(OC)c(Cl)c1=O	-6	101	101	112
Cc1ccc(-c2cn3c(n2)sc2cc(C(=O)NCCCc4ccccc4)ccc23)cc1	nt	103	262	124
COc1cccc(C(=O)Nc2ccc(-n3nncc3-c3ccccc3)cc2)c1	nt	101	104	89
Cc1cc(C)c2c(n1)SCC(=O)N2CC(=O)NC1CCN(Cc2ccccc2)CC1	-7	105	106	89
Cc1ccn2c(=O)c(-c3ccccc3)c(O)nc2c1	-70&-34	101&105	98	96
CC(C)n1cnc2nc(CSc3ccc(NC(=O)COc4ccc(F)cc4)cc3)cc(=O)n21	-22	101	nt	nt
CCCNC(=O)CN1CCN(c2nc(C)nc3scc(-c4cccs4)c23)CC1	-18	nt	103	91

# Complete entries, looked up by structure. Order of values: HCMV NEC inh	GIV-Gai inh	Sa growth inh	Sa growth inh second temp
# Record of COc1cccc(C2C(C#N)=C(N)Oc3n[nH]c(-c4ccc5c(c4)OCO5)c32)c1OC (stereo not given) → -14	101	nt	nt
# Record of Cc1cc(C)c2c(n1)SCC(=O)N2CC(=O)NC1CCN(Cc2ccccc2)CC1 → -7	105	106	89

# Following part.
compound	HCMV NEC inh	GIV-Gai inh	Sa growth inh	Sa growth inh second temp
O=C(Nc1cccc([N+](=O)[O-])c1)c1ccc(Br)c(S(=O)(=O)Nc2ccc(Cl)cc2)c1	-10	106	nt	nt
Cc1ccccc1OCc1ccc(-c2nc(C#N)c(N3CCN(c4cccc(Cl)c4)CC3)o2)o1	2	99	88	96
S=C(Nc1ccc2nsnc2c1)N1CCCC1	nt	81*	86	92
Cn1/c(=N\NC(=O)C23CC4CC(CC(C4)C2)C3)sc2ccccc21	-17	98	92	85
COc1ccc(-n2c(C)c(C(=O)N3CCOCC3)c3cc(OC)ccc32)cc1	9	97	nt	nt
O=C(CN1CCCCC1)Nc1ccccc1C(=O)NC1CC1	-5	nt	111	93
NS(=O)(=O)c1cccc(-n2cnnn2)c1	-27	nt	96	98
CCn1nc(C)c2c1c(=O)n(Cc1ccccc1)c(=O)n2CC(=O)NCC1CCCO1 (stereo not given)	17	107	nt	nt
Cc1ccc(CN(Cc2ccco2)C(=O)c2cccc(C)c2)cc1	2	105	92	58
CCN1C(=O)C2(C(C#N)=C(N)Oc3n[nH]c(-c4ccccc4)c32)c2ccccc21 (stereo not given)	-18	104	nt	nt

# 4 structures out of the list, sorted by molar mass, largest number first.
compound	HCMV NEC inh	GIV-Gai inh	Sa growth inh	Sa growth inh second temp
OC(CNCc1ccco1)COc1ccc(OCC(O)CNCc2ccco2)cc1 (stereo not given)	-32	107	101	89
Cc1cc(C)cc(OCC(=O)N(Cc2ccc(C)o2)C2CCS(=O)(=O)C2)c1 (stereo not given)	2	101	112	91
Cc1nc(-n2nc(C)c(Cc3ccccc3)c2C)sc1C(=O)N1CCCC1	25	108	nt	nt
O=C(COc1ncnc2cc(Cl)ccc12)c1ccc2c(c1)OCCCO2	-14	100	101	95

# Further structures follow.
compound	HCMV NEC inh	GIV-Gai inh	Sa growth inh	Sa growth inh second temp
Cc1ccc(C(=O)Nc2ccc(OCc3cc(=O)n4[nH]cnc4n3)cc2)cc1	-13	104	nt	nt
CCc1nc2c(C)nc(Nc3ccc(OC)c(Cl)c3)nc2n1-c1ccc(OC)c(Cl)c1	4	105	nt	nt
Cc1csc(C2C(=O)NC(S)=C(C#N)C23CCCCC3)n1 (stereo not given)	-2	nt	74	92
COc1ccc(Cl)cc1NC(=O)Cn1cc2c(n1)CCC(C)C2 (stereo not given)	-22	99	107	85
CC(C)(C)NC(=O)CSc1nc(O)cc(=O)[nH]1	-9	102	91	106
COc1ccc(S(=O)(=O)NCCN2CCOCC2)cc1OC	7	nt	79	96
COc1cccc(OCCSc2nc3ccccc3c(=O)[nH]2)c1	-17	98	93	85
COCCNC(=O)C(C)N1C(=O)CCCc2ccccc21 (stereo not given)	-20	108	nt	nt
COc1ccc(-c2nc3nc(C)cc(C)n3c2Nc2c(C)cccc2C)cc1	-3	133	109	87
Cc1ccc(C(=O)OC(C)CN2CCCC2)cc1 (stereo not given)	-20	106	93	81
O=C(c1nc(Nc2ccc(F)cc2)c2ccccc2n1)N1CCCC1	-14	98	nt	nt
COC(=O)c1c(NC(=O)c2ccc(S(=O)(=O)N3CCCC(C)C3)cc2)sc2c1CCN(C(C)C)C2 (stereo not given)	nt	140	112	82
Cc1cccc(NC(=O)c2cccc3c2OC(C)(C)C3)c1	3	95	79	81
CCC(=O)NC(Nc1cccnc1Cl)(C(F)(F)F)C(F)(F)F	nt	105	102	86
COc1ccc(/C=N/NC(=O)c2ccncc2)cc1CN1CCN(c2ccc(F)cc2)CC1	-45	104	92	66

# Bioassay records from PubChem.
